VDR inhibitor – blocks the human vitamin D receptor | VDR-SRC2-3 peptide fluorescence polarization, 2 h | Potency, µM, without a hit: max response, negative = inhibition, usual class: inhibitors | 400,000 tested, 0.93% active | AID 504847; active = well fitted inhibition curve with a large enough effect; inconclusive = small, poorly fitted or top-dose-only effect, or another doubt; inactive = no such curve, though single readings can be large or run the other way; note: series mostly up to about 120 µM
Target sequence (P11473 whole entry, looked up): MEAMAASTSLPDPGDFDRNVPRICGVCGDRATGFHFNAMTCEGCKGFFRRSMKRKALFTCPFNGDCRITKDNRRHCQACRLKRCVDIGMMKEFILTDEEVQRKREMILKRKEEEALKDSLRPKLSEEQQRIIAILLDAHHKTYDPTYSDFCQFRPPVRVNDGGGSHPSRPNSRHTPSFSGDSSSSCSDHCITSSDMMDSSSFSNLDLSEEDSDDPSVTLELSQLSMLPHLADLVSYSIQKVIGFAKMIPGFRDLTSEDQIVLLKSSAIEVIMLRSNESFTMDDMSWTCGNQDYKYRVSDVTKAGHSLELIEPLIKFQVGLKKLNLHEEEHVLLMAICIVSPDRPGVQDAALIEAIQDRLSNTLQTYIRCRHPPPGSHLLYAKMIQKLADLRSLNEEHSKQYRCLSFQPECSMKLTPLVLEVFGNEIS
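Fluorescence polarization assay measuring small-molecule disruption of VDR binding to the coregulator peptide SRC2-3. Compounds were pin-transferred (23 nl) into the reagent mix and incubated 2 h at room temperature before reading.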
* hit, by the source's call; ? = inconclusive; & = joins results of further samples. % is set by controls: 0 for no effect and ±100 for the full control effect; potency is the fitted concentration of half-maximal effect. The list is partial (hit frequency here may not be typical).

VDR inhibitor	molecule
-2%	Cc1ccc(NC(=O)CSc2nnc(C)n2CC2CCCO2)cc1 (stereo not given)
3%	COc1ccc(NC(=O)CN(C)C(=O)c2ccccc2OC)cc1
-12%	COc1ccc2c(c1OC)C(=O)OC2c1c(O)nc(SC)n(-c2ccccc2)c1=O (stereo not given)
-16%&7%	Cc1nc2nc(C)c(CCC(=O)NCCCN3CCN(c4cccc(Cl)c4)CC3)c(C)n2n1
-8%	C[C@H](CO)N1C[C@H](C)[C@@H](CN(C)C)Oc2c(NC(=O)Cc3ccccc3)cccc2C1=O
-11%	Cn1cc[n+](C)c1COc1ccc(C=O)cc1
-22%	O=C(Cc1cccc(NC(=O)C2CCN(C(=O)C3CCCC3)CC2)c1)Nc1cccc(C(=O)N2CCCC2)c1
-21%	Clc1ccc(-c2noc(CSc3nnc(-c4ccncc4)n3-c3ccccc3)n2)cc1
-3%&-4%	CCN(CC)CCC(c1cc(OC)c(OC)c(OC)c1)c1c(OC)cc(OC)c2ccc(=O)oc12 (stereo not given)
2%	CCc1cc(C(=O)N/N=C/c2ccc(OC)cc2)c2ccccc2n1
3%	Cc1cccc(NC(=O)CSc2nc(-c3ccccc3Cl)nc3c2Cc2c(CO)cnc(C)c2O3)c1C
-11%	O=C(CC1C(=O)NCCN1Cc1c(F)cccc1Cl)NCc1ccccc1 (stereo not given)
-2%	Cc1cccc(C)c1NC(=O)COC(=O)CNC(=O)C1CCCCC1
-3%	CCOc1ccc(C(=O)O[C@H]2[C@H](Cc3ccccc3)NS(=O)(=O)[C@H]3C[C@@H]4C=C[C@]23O4)cc1
-2%	CC[C@@H]1/C=C(\C)C[C@H](C)C[C@H](OC)[C@H]2O[C@@](O)(C(=O)C(=O)N3CCCC[C@H]3C(=O)O[C@H](/C(C)=C/[C@@H]3CC[C@H](Cl)[C@H](OC)C3)[C@H](C)[C@@H](O)CC1=O)[C@H](C)C[C@@H]2OC
-18%	NS(=O)(=O)c1ccc(NS(=O)(=O)c2ccc(NC(=S)Nc3ccccc3)cc2)cc1
3%	CCC(Oc1ccccc1)C(=O)N(CC)CC(=O)NCc1ccc(F)cc1 (stereo not given)
-6%	O=c1c2cc(N3CCOCC3)ccc2[nH]c(=S)n1Cc1ccccn1
-6%	CCC/C(=N/Nc1ccc(Cl)cc1)c1cnnc(-c2ccccc2)n1
16%	Nc1ncc(-c2ccccc2)n1CC1CCCO1 (stereo not given)
10%	CCN(CC)S(=O)(=O)c1ccc(C(=O)OC2CCCCC2CN(C)C)cc1 (stereo not given)
17%	COc1ccccc1C(=O)NCCC(=O)N1CCN(c2cccc(C(F)(F)F)c2)CC1
-7%	CCNC(=O)CSc1nc(-c2ccc(F)cc2)cs1
-4%	COc1ccc(-c2c[n+]3c4n2CCCCC4=C(c2ccccc2)C3)cc1
4%	CCOC(=O)C(NC(=O)Nc1ccccc1)(OCC)C(F)(F)F (stereo not given)
7%	O=C(O)c1nsc(Cl)c1Cl
-5%	CCCCCC(=O)N/N=C(\C)c1ccc(Cl)cc1
-9%	CC(=O)c1ccc(OCc2cc(C(=O)N(C)CCOc3ccc(C)cc3)no2)cc1
?	CN(c1ccccc1)c1ccc(/C=C(\C#N)c2nnc3n2CCCCC3)cc1[N+](=O)[O-]
-7%	CNc1ccccc1C(=O)OC
-4%	O=C(NCc1ccccn1)C1CC(c2ccccc2O)=NO1 (stereo not given)
5%	CC(C)Cn1cc(NC(=O)N2CCN(c3ccc(F)cc3)CC2)c2ccccc2c1=O
-12%	CCOC(=O)N1CCN(C(=O)COC(=O)c2ccc(N(C)C)cc2)CC1
-9%	CCOc1ccc(-c2c(=O)n(OCc3ccc([N+](=O)[O-])cc3)c3ccccc3[n+]2[O-])c(OCC)c1
-6%	O=C(CCCCn1c(=O)c2ccccc2n(CC(=O)Nc2ccc(F)cc2F)c1=O)NCCc1ccccc1
-9%	COc1ccc(/C=C2/SC(=S)N(CCC(=O)O)C2=O)cc1
-5%	Cc1oc(-c2ccccc2)nc1CC(=O)O
5%	COc1ccc(C)c2sc(NC(=O)CCS(=O)(=O)c3ccccc3)nc12
23%	CCOc1ccc(NC(=O)CCn2cccc2)cc1
-8%	Cc1ccc(N(CC(=O)NCc2ccco2)C(=O)CCC(=O)Nc2ccccn2)c(C)c1
?	O=C(Nc1nnc(S(=O)(=O)N2CCCCCC2)s1)c1ccc(Br)cc1
-12%	CC1CCC(NC(=O)c2ccc3c(c2)N(Cc2ccccc2F)C(=O)c2ccccc2S3(=O)=O)CC1 (stereo not given)
-4%	Cc1ccc(S(=O)(=O)N2CCOCC2)cc1C(=O)OCC(=O)NC1CCCC(C)C1C (stereo not given)
11%	O=C1CC(C(=O)N2CCN(c3ccccc3)CC2)CN1Cc1ccccc1 (stereo not given)
?	O=C(O)c1ccc2c(c1)C(=O)/C(=C/c1ccccc1)C2=O
-20%	CC(=O)CSc1nc2c(c(=O)[nH]c(=O)n2C)n1Cc1cccc(Br)c1
11%	CCOc1ncccc1C(=O)OCC(=O)N(CC)c1ccccc1
1%	CC(CCc1ccco1)NC(=O)CCc1nnc2ccc(NCc3ccc(Cl)cc3)nn12 (stereo not given)
4%	Cc1ccc(CC2CC(=O)N(c3ccc4c(c3)OCCO4)C2=O)cc1 (stereo not given)
-20%	CC(=O)Nc1cccc(-c2nc3ccccc3o2)c1

Next section
VDR inhibitor	molecule
-2%	Cc1ccc(C(=O)CNc2ccccc2C)cc1
-5%	Cc1ccccc1C(=O)NC(=S)NCC(=O)c1ccccc1
6%&-4%	NC/C=C\C(=O)O
3%	O=c1c2c3c(sc2nnn1Cc1ccc(F)cc1)CCCC3
4%	CCOc1ccccc1NC(=O)Cn1c(=O)n(Cc2ccc(OC)cc2)c(=O)c2oc3ccccc3c21
-7%	CC(=O)c1ccc(NC(=S)Nc2cccc(Cl)c2C)cc1
-5%	Nc1nc(=O)n(C2CC(O)C(CO)O2)cc1F (stereo not given)
-17%	Cc1noc(NS(=O)(=O)c2ccc(NC(=O)c3cc(S(=O)(=O)N(C)c4ccccc4)ccc3Cl)cc2)c1C
-7%	COC(=O)CSc1nc(C)cc(Oc2ccccc2)n1
-3%	O=C(COC(=O)c1n[nH]c2ccccc12)NC1CCCCC1
0%	COc1ccc(NC(=O)N2CCC3(CC2)CCN(C(=O)c2cnccn2)CC3)cc1
-6%	COc1ccccc1N1CCN(Cc2ccc(Br)o2)CC1
-2%	NS(=O)(=O)c1ccc(NC(=O)c2cccc(Cl)c2)cc1
-22%	COc1cccc(NC(=O)/C(C#N)=C/c2ccc(-c3ccc(C)cc3)o2)c1
10%	C=CC[C@H](CC(=O)N(CCO)Cc1ccccc1)C(=O)N[C@@H](COC(=O)[C@@H](CC=C)Cc1ccc(F)cc1)Cc1c[nH]c2ccccc12
-24%	O=C(O)C1CC=CCC1C(=O)Nc1ccc(N2CCN(Cc3ccccc3)CC2)cc1 (stereo not given)
9%	CC(NC(=O)c1ccc(N(C)C)cc1)c1ccc(F)cc1 (stereo not given)
-2%	COc1ccc(OC)c(NC(=O)COC(=O)c2ccc(-n3cnnn3)cc2)c1
-15%	CCCC(=O)N1CCN(Cc2nc3cc([N+](=O)[O-])ccc3n2C)CC1
-1%	COc1ccc(-c2oc3ccccc3c(=O)c2O)cc1
?	O=Cc1[nH]c2ccccc2c1N(C(=O)CCl)c1ccccc1
1%	Cc1ccc(-n2c(SCC(=O)N/N=C/c3ccccc3C(=O)O)nnc2-c2ccccc2)cc1
-6%	CCOc1cc(C(=O)N(CC)CC(=O)Nc2c(F)cccc2F)ccc1OCC(=O)N1CCOCC1
1%	CCn1c(=O)cc(SCC(=O)NCCc2ccc(OC)cc2OC)c2ccccc21
-20%	COc1cc(/C=C2\SC(=S)N(CCC(=O)NCCc3ccccc3)C2=O)cc(OC)c1OC
-19%	CC[C@@]1(C(=O)OC)N[C@H](CN(C)C(=O)c2ccc(C)cc2)[C@@H]2C(=O)N(C)C(=O)[C@@H]21
-11%	Cc1ccc(C(O)(C(=O)NNc2ccccn2)c2ccc(C)cc2)cc1
-14%	O=C(O)CC(Cc1ccc(Cl)cc1)C(=O)Nc1cc(Cl)ccc1Cl (stereo not given)
-14%	CCOC(=O)Cn1c(=O)n(Cc2ccco2)c(=O)c2ccc(C(=O)NC3CCCC3)cc21
-13%	Cc1nnc(SCC(=O)Nc2ccc([N+](=O)[O-])cc2)n1CC1CCCO1 (stereo not given)
17%	CCCCC(=O)Nc1cccc(-c2nc3ccccc3s2)c1
17%	COc1ccc(OC)c(C(C)NS(=O)(=O)c2cccs2)c1 (stereo not given)
8%	O=C(NN1CCOCC1)c1cccc(Br)c1
3%	O=C(NCc1ccco1)c1nc(-c2ccc(F)cc2)no1
-15%	Cn1ccnc1Sc1nc2ccccc2nc1NS(=O)(=O)c1ccccc1
5%	Cc1cccc(N2C(=O)CC(N3CCN(C(=O)c4ccccc4)CC3)C2=O)c1 (stereo not given)
2%	C=CCOc1ccc(C(=O)Nc2ccccc2C(=O)NCc2cccnc2)cc1
-9%	O=C(CN1CCCC1)Nc1cc(C(F)(F)F)ccc1Cl
-6%	CCc1c(C)sc(NC(=O)c2cc(C(C)C)on2)c1C#N
6%	CC1Cc2ccccc2N1C(=O)CSc1nnc(-c2cccc(Cl)c2)o1 (stereo not given)
17%	O=C(NCc1ccccn1)c1cc(S(=O)(=O)N2CCCCC2)ccc1Cl
-7%	CCOC(=O)/C=C(C)/C=C/C=C(C)/C=C/c1c(C)cc(OC)c(C)c1C
-5%	CCc1nnc(NC(=O)c2oc3cc(C)c(C)cc3c2C)s1
-2%	CCc1ccc(C(=O)NNC(=O)C2CC(=O)N(Cc3ccccc3)C2)cc1 (stereo not given)
-21%	Cc1ccc(Cl)cc1N1CCN(S(=O)(=O)c2c(C)[nH]c(C)c2C(=O)N2CCCC2)CC1
7%	COc1ccccc1N(CC(=O)N1CCCC1)S(=O)(=O)c1ccc(C)cc1
5%	CCCS(=O)(=O)N1CC(=O)N(c2cccc(F)c2)C(C)(C(=O)NC2CCCCCC2)C1 (stereo not given)
5%	O=C(Nc1ccsn1)c1ccc(Cl)cc1Cl
9%	CC(C)c1cc(C(=O)N2CCCC(Nc3ccc(F)cc3)C2)nc(N)n1 (stereo not given)
-6%	CC(C)CN1C(=O)C(NC(=O)C2CC2)(C(F)(F)F)C2=C1CC(C)(C)CC2=O (stereo not given)

Remaining list, next part:
VDR inhibitor	molecule
2%	CCOC(C)=O
6%	Cc1cccc(Nc2nc(C)nc(N)c2S(=O)(=O)c2ccccc2)c1
-5%	CSc1nc(Oc2ccc(Cl)cc2)c2sccc2n1
5%	O=C1c2ccccc2C(=O)N1CCN1CCc2ccccc21
-11%	CC(OCCN(C)C)C(=O)C12CC3CC(CC(C3)C1)C2 (stereo not given)
-4%	COc1cc(C(C)=O)ccc1OCC(O)CNCC(O)c1ccccc1 (stereo not given)
-13%	CCOCCCn1c(SCC(=O)Nc2ccccc2)nc2ccccc2c1=O
29%	CN(CCc1ccccn1)c1ccccc1
-7%	O=[N+]([O-])c1ccc(NCCN2CCOCC2)c([N+](=O)[O-])c1
0%	CC(C)(C)CNC(=O)[C@]1(C)CCC[C@@]2(C)C3CC[C@@]4(C)C[C@]3(CCC21)CC4=O (stereo not given in full)
?	COc1ccc(Cl)cc1C=CC=Nc1ccc(S(N)(=O)=O)cc1
-3%	CCOc1ccc(CCNC(=O)C2CCN(C(=O)c3cc4sccc4n3CC)CC2)cc1OCC
-1%	O=C(CSc1nc2ccccc2c(=O)n1-c1ccccc1F)Nc1ccc2c(c1)CCC2
-12%	CC(OC(=O)CNS(=O)(=O)c1ccc(C#N)cc1)C(=O)Nc1cccc(C#N)c1 (stereo not given)
10%	COc1ccc(N(C)C(=O)C2CCN(S(=O)(=O)c3cccc4nonc34)CC2)cc1
-2%	CCOC(=O)N1CCc2c(sc3ncn(C)c(=O)c23)C1
-21%	N#CC1(NC(=O)COc2cc(F)ccc2[N+](=O)[O-])CCCCC1
-16%	O=c1c(-c2ccccc2)nc2cnc(N3CCOCC3)nc2n1-c1ccccc1

Entries listed so far containing an aryl thioether with sulfur outside any ring:
VDR inhibitor	molecule
-2%	Cc1ccc(NC(=O)CSc2nnc(C)n2CC2CCCO2)cc1 (stereo not given)
-12%	COc1ccc2c(c1OC)C(=O)OC2c1c(O)nc(SC)n(-c2ccccc2)c1=O (stereo not given)
-21%	Clc1ccc(-c2noc(CSc3nnc(-c4ccncc4)n3-c3ccccc3)n2)cc1
3%	Cc1cccc(NC(=O)CSc2nc(-c3ccccc3Cl)nc3c2Cc2c(CO)cnc(C)c2O3)c1C
-7%	CCNC(=O)CSc1nc(-c2ccc(F)cc2)cs1
-20%	CC(=O)CSc1nc2c(c(=O)[nH]c(=O)n2C)n1Cc1cccc(Br)c1
-7%	COC(=O)CSc1nc(C)cc(Oc2ccccc2)n1
1%	Cc1ccc(-n2c(SCC(=O)N/N=C/c3ccccc3C(=O)O)nnc2-c2ccccc2)cc1
1%	CCn1c(=O)cc(SCC(=O)NCCc2ccc(OC)cc2OC)c2ccccc21
-13%	Cc1nnc(SCC(=O)Nc2ccc([N+](=O)[O-])cc2)n1CC1CCCO1 (stereo not given)
-15%	Cn1ccnc1Sc1nc2ccccc2nc1NS(=O)(=O)c1ccccc1
6%	CC1Cc2ccccc2N1C(=O)CSc1nnc(-c2cccc(Cl)c2)o1 (stereo not given)
-5%	CSc1nc(Oc2ccc(Cl)cc2)c2sccc2n1
-13%	CCOCCCn1c(SCC(=O)Nc2ccccc2)nc2ccccc2c1=O
-1%	O=C(CSc1nc2ccccc2c(=O)n1-c1ccccc1F)Nc1ccc2c(c1)CCC2

High-throughput results (PubChem)
